Screening data as filed in PubChem.
Biofilm kill mix – clotrimazole potentiators killing C. albicans biofilm, primary screen, 4-compound mixtures; C. albicans biofilm persisters + clotrimazole, fluorescence viability; primary screen in compound mixtures of four per well; inhibition, % at 7.6 µM; actives 0.02% (n = 120,000); AID 1242, 2008;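 active means inhibition above 30.3% in the primary screen of four-compound pools, then above 30% when the compound was retested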;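 further: compounds exposed to preformed 24 h biofilms for 48 h; the number belongs to the whole pool; some results filed as inactive read as strong as hits; inactives centre near 12; 0% = biofilm with clotrimazole alone and 100% = kill control; retested singly at about 60 µM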
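Assay system: C. albicans biofilms / Medium: RPMI/MOPS medium, pH 7.0 / Schedule: biofilm formation 24 h, compound exposure 48 h, 37 °C / Measured by: Alamar Blue fluorescence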
Starred values were filed as active, the others as inactive. Not all compounds are listed; the hit share may differ from the screen's.

SMILES	Biofilm kill mix
COCCn1c(-c2cccc(Br)c2)nc2c(c(=O)c3ccccc3n2C)c1=O	9
Cc1[nH]c2ccccc2c1C(=O)C(=O)N1CCCc2ccccc21	20
COC(=O)c1c(NC(=O)CSc2nnc(C)c(=O)[nH]2)sc(C)c1C	19
CCCC/C=C1\CCc2c([nH]c3ccccc23)C1=O	-4
CC(C)CC(=O)Nc1ccc(C(=O)NN2C(=O)c3ccccc3C2=O)cc1	8
Cc1ccc(NC(=O)C2CCCN2C(=O)NC2CCCCC2)c(C)c1 (stereo unspecified)	-6
CC(=O)c1ccc2c(c1)N(C)c1ccccc1S2	7
Cc1ccc(NC(=O)Cn2c(O)c(N=NC(=O)c3ccncc3)c3ccccc32)cc1	-1
N/C(=N\OC(=O)c1cccc2ccccc12)c1ccc(Br)cc1	15
O=C(NNc1ccc(F)cc1F)c1c(F)cccc1Cl	22
O=C1c2cccc3cccc(c23)C(=O)N1CCCSc1ncn[nH]1	10
Cc1cc(NC(=O)CN2C(=O)NC(CCc3ccccc3)C2=O)no1 (stereo unspecified)	6
Cc1cc(C)nc(NC(=NCCc2c[nH]c3ccccc23)NC(=O)Nc2cccc([N+](=O)[O-])c2)n1	5
COc1cc2cc(CN(CCc3cccc(C)c3)C(=S)NCCCN3CCOCC3)c(=O)[nH]c2cc1OC	19
CCN=C1SC(C(=O)Nc2cc(Cl)cc(Cl)c2)CC(=O)N1CC (stereo unspecified)	27
COC(=O)c1ccc(CSc2nnc(N)s2)o1	3
Cc1ccc(C(=O)OCC(=O)NCC(F)(F)F)cc1C	-3
Cc1cc(C)c(C(=O)Cn2nc(C)c([N+](=O)[O-])c2C)cc1C	1
Cc1ccc(OCC(=O)Nc2ccc(N3CCN(C(=O)c4ccco4)CC3)cc2)cc1	11
COc1cc2cc(CN(CCCN3CCOCC3)C(=O)Nc3ccccc3F)c(=O)[nH]c2cc1OC	32
c1ccc(Oc2ccc(-c3ccn[nH]3)cc2)cc1	14
Cc1nnc(NC(=O)C2CCCN2S(=O)(=O)c2ccc(Cl)cc2)s1 (stereo unspecified)	17
COC(=O)c1ccc(/C=C2\N=C(SC)SC2=O)cc1	7
Cc1ccc(NC(=O)CSc2ccccc2NC(=O)c2ccccc2Cl)cc1Cl	19
CC(C)n1cc(/C=N/NC(=O)COc2cccc3cccnc23)c2ccccc21	1
COc1cccc2cc(C(=O)N3CCN(C(=O)c4ccccc4)CC3)c(=O)oc12	8
COc1ccc(-c2nc3c4ccccc4ccn3c2CN2CCCCC2)cc1OC	23
NCCCC[C@H]1CNC(=S)N1CC1(c2ccccc2)CC1	18
COc1ccc(NC(=O)C2(c3ccccc3)CCCC2)cc1	6
CN(C)N1C(N)=C(C#N)C(c2cccc3ccccc23)C2=C1CC(c1ccccc1)CC2=O (stereo unspecified)	18
OCC[C@H]1C[C@@H](O)[C@H](O)[C@]2(CCCCO2)O1	14
CCOC(=O)c1cc(C(=O)n2cc(Cl)cn2)nn1C	3
CCOC(=O)C1CCN(C(=O)Cc2ccccc2OC)CC1	10
O=C(NN=C(Cc1ccccc1)Cc1ccccc1)c1ccccc1F	12
Cc1oc(/C=N/NC(=O)CN(c2ccccc2Cl)S(C)(=O)=O)cc1Br	7
Cc1cc(CSc2ccccc2)ccc1NC(=O)c1ccc(Br)cc1	10
CC[n+]1oc(-c2ccccc2)cc1C	10
COc1ccc(C/C(C)=N/NC(=S)Nc2ccccc2)cc1	14
c1ccn2cc(-c3ccc4c(c3)OCCO4)nc2c1	12
CC(C)Cn1c(=S)[nH]c2cc(Cl)ccc21	12
Cc1cccn2c(=O)c3cc(C(=O)NC(C)c4ccccc4)c(=N)n(CCCn4ccnc4)c3nc12 (stereo unspecified)	16
O=C(CCl)N(Cc1cccc([N+](=O)[O-])c1)c1cccc(Cl)c1	6
CCN(CC)S(=O)(=O)c1cccc(C(=O)NC(Cc2c[nH]c3ccccc23)c2nnc3n2CCC3)c1 (stereo unspecified)	9
Cc1ccc(-c2nnc3ccc(SCC(=O)N4CCCc5ccccc54)nn23)cc1	7
O=S(=O)(NCC1CCCO1)c1ccc(S(=O)(=O)N(Cc2ccc(F)cc2)Cc2ccccn2)cc1 (stereo unspecified)	13
O=C(C1CCN(S(=O)(=O)N2CCOCC2)CC1)N1CCN(c2ccc(F)cc2)CC1	10
O=[N+]([O-])c1ccc(CN2CCSCC2)cc1	4
OCC1(Cc2ccccc2)CCN(C2CCN(c3ccccc3F)CC2)CC1	10
Cn1cnc(S(=O)(=O)Nc2ccc3c(c2)OCCO3)c1	24
CSc1nc(C)cc(Oc2ccccc2)n1	2
CCN(CC)C(=O)CSc1ncnc2sc(C)c(C)c12	12
Cc1nn(C)cc1S(=O)(=O)N1CCN(Cc2ccccc2Cl)CC1	5
CCC1(C)N(O)C(C)(C)C(c2ccc(F)cc2)=[N+]1[O-] (stereo unspecified)	11
C=CCOc1ccc(/C(O)=C2/C(=O)C(=O)N(CCCn3ccnc3)C2c2ccco2)cc1 (stereo unspecified)	25
CCCNCc1nnc(-c2ccccc2Cl)o1	8
CCN(CC)S(=O)(=O)c1ccc(NS(=O)(=O)c2ccc(O)c([N+](=O)[O-])c2)cc1	23
CC(=O)Nc1ccc(S(=O)(=O)Nc2cc(C)ccn2)cc1	8
COc1ccccc1NC(=O)/C=C\C(=O)O	5
COc1c(C(C)C)oc2cc3oc(=O)ccc3cc12	22
Brc1ccc2[nH]c3nc(SCCN4CCOCC4)nnc3c2c1	15

(continued)
SMILES	Biofilm kill mix
CCCCNC(=O)C1CCC(CNc2c(N3CCC(C)CC3)c(=O)c2=O)CC1 (stereo unspecified)	16
NS(=O)(=O)c1ccc(CCNC(=O)C(=O)NCC2OCCN2C(=O)c2ccc3c(c2)OCO3)cc1 (stereo unspecified)	8
CN/N=C(\Cc1nc2ccccc2[nH]1)c1ccc([N+](=O)[O-])cc1	10
CC/C(=N\NC(=O)Nc1nonc1N)c1ccc(OC)c(OC)c1	17
COc1ccc(NC(=O)CCC(=O)OCC(=O)c2ccc(Oc3ccc([N+](=O)[O-])cc3)cc2)cc1	11
Cc1cccc(OCCNC(=O)CSc2ccc(C(F)(F)F)cc2[N+](=O)[O-])c1	19
Cc1ccccc1-c1noc(-c2ccccc2C(=O)NCC2CCCO2)n1 (stereo unspecified)	19
COc1ccc(CN2C(=O)c3ccccc3C2=O)cc1C(=O)Nc1ccccc1N1CCOCC1	13
Cc1cc(C)c2nc(-c3ccccn3)cc(C(=O)Nc3ccc(S(=O)(=O)Nc4onc(C)c4C)cc3)c2c1	11
CCOC(=O)C1(Cc2cccc(Cl)c2)CCCN(C(=O)CCOC)C1 (stereo unspecified)	6
COc1ccc(CCNC(=O)C(=O)NCCOc2ccccc2Cl)cc1OC	22
COC(=O)c1c(C)[nH]c(C(=O)CC#N)c1C	-2
Cc1ccc(NC(=O)Cn2nc(-c3ccccc3)nc2-c2ccccc2)c(C)c1	6
CC(=O)Nc1cccc(NC(=O)CSc2ccc(-c3cccnc3)nn2)c1	14
O=Cc1cn(CC(=O)N2CCCc3ccccc32)c2ccccc12	8
COc1cc(CN2CCC(N3CCC(C(=O)N4CCCC4)CC3)CC2)cc2c1OCO2	-10
CCC(=O)NC(Nc1c(C)n(C)n(-c2ccccc2)c1=O)C(Cl)(Cl)Cl (stereo unspecified)	8
CCOC(=O)C1Sc2ccccc2NC1=O (stereo unspecified)	17
Brc1ccc(OCCOc2cccc3cccnc23)cc1	11
CC1=C(C(=O)OCc2ccccc2)C(c2ccc3ccccc3c2)NC(=O)N1CCCCCC(=O)O (stereo unspecified)	8
Cn1c(=O)c(C(=O)CN2CC(=O)Nc3ccccc32)c(N)n(Cc2ccccc2)c1=O	9
Cc1ccccc1NC(=O)Cn1c(=O)n(Cc2ccccc2)c(=O)c2c(C)c(C)sc21	9
CCOc1cc(/C=N/NC(N)=O)cc(Br)c1OCc1ccccc1F	14
CN1/C(=C\C(=O)CSc2nncn2C)C(C)(C)c2ccccc21	2
Cc1ccc(-c2ccc(CO)o2)cc1N	20
O=C(C1CCCN1S(=O)(=O)c1cccc2nsnc12)N1CCCCC1 (stereo unspecified)	18
O=C1CN(C(=S)Nc2ccccc2Cl)CCN1	2
CSc1ccc(/C=C/C(=O)Nc2ccccc2)cc1	14
COc1cc2c(C(=O)O)c(C)n(-c3ccccc3)c2c2ccccc12	30
CCOc1cc(N2CCOCC2)c(OCC)cc1NC(=O)COC(=O)[C@@H]1CCCN1S(=O)(=O)c1ccccc1F	9
O=S(=O)(NCC(c1ccco1)N1CCOCC1)c1ccc(Cl)cc1 (stereo unspecified)	14
COCCNC(=S)N1CCN(c2cccc(C(F)(F)F)c2)CC1	0
O=C(Nc1cccc(S(=O)(=O)N2CCCCC2)c1)c1ccccc1NS(=O)(=O)c1ccc(F)cc1	9
COc1ccccc1CCNC(=O)Cc1cccs1	23
CCOc1ccc(NC2OCC(O)C(O)C2O)c([N+](=O)[O-])c1 (stereo unspecified)	2
COc1ccc(NC(=O)CCNS(=O)(=O)c2cccc3nsnc23)cc1OC	6
C/C(=N\NC(=S)NCCc1ccccc1)c1ccc(Cl)cc1	15
CC(NC(=O)c1ccccc1)C(=O)N/N=C/c1ccccc1 (stereo unspecified)	-8
O=c1cc(O)c2sc(Nc3ccc(Cl)c(F)c3)nc2[nH]1	-3
CCCC(=O)NC(=S)Nc1ccc(S(=O)(=O)Nc2ccc(OCC)cc2)cc1	10
CCc1ccccc1NC(=O)COc1ccc2oc(-c3ccc(OC)cc3)cc(=O)c2c1	18
O=C(CN1CCCCCC1)Nc1ccccc1Oc1ccccc1	13
CC(C)c1ccc(C(CC(=O)O)NC(=O)c2cccs2)cc1 (stereo unspecified)	13
Cc1ccc2c(c1)C(c1ccccc1)N(C(=O)c1ccc3c(c1)OCO3)CC(=O)N2 (stereo unspecified)	18
CCOCCCNC(=O)C(c1ccccc1)N(Cc1cccs1)C(=O)CNC(C)=O (stereo unspecified)	10
COc1ccc(S(=O)(=O)N2CCCOC2CNC(=O)C(=O)NCCCn2ccnc2)cc1OC (stereo unspecified)	3
CN1c2ccsc2/C(=N/Nc2ccccc2)CS1(=O)=O	14
O=C(Nc1cccc(C2OCCCO2)c1)c1cccs1	-4
CCC(SC1=N/C(=C/c2ccccc2)C(=O)N1c1ccccc1)C(=O)Nc1cc(C)on1 (stereo unspecified)	14
CCOC(=O)CN1C(=O)N[C@H](c2ccc(Br)cc2)C(C(C)=O)=C1C	11
Cc1nn(C)cc1CN(C)C(=O)c1cc(-c2ccccc2)nc2ccc(Br)cc12	2
O=C(NNC(=S)Nc1ccc(F)cc1)C1[C@H]2CCCC[C@@H]12 (stereo partly specified)	20
O=[N+]([O-])c1ccccc1CN1CCN(Cc2c[nH]c3ccccc23)CC1	12
C=C(C)c1cccc(C(C)(C)NC(=O)N2CCCC(C)C2)c1 (stereo unspecified)	8
Cc1cccc(OCc2nnc(SCC(=O)Nc3cccc(C(=O)N4CCOCC4)c3)n2C)c1C	6
COc1ccc(C(=O)Nc2nc(C)cc(C)n2)cc1	7
CC1=NN(c2ccc(Cl)cc2)C(=O)/C1=C\c1cccn1-c1ccc(S(N)(=O)=O)cc1	9
O=C(N/N=C/c1ccncc1)c1ccccc1[N+](=O)[O-]	19
Cc1cc(S(=O)(=O)N2CCN=C2c2ccccc2)c(Cl)cc1Cl	18
C=CCn1c(SC(C)C(N)=O)nc2sc(CC)cc2c1=O (stereo unspecified)	8

Some of the entries so far, as comma-separated lines:
smiles,Biofilm kill mix
CCC(SC1=N/C(=C/c2ccccc2)C(=O)N1c1ccccc1)C(=O)Nc1cc(C)on1 (stereo unspecified),14
C=CCn1c(SC(C)C(N)=O)nc2sc(CC)cc2c1=O (stereo unspecified),8
O=C(NNC(=S)Nc1ccc(F)cc1)C1[C@H]2CCCC[C@@H]12 (stereo partly specified),20

Remaining list, next part:
SMILES	Biofilm kill mix
C=CCc1ccccc1OCC(O)CNC(C)C (stereo unspecified)	17
O=C(COc1ncnc2ccccc12)Nc1ccc(Cl)c([N+](=O)[O-])c1	13
CC(=O)NCCCNS(=O)(=O)c1ccc(C)cc1	16
O=C(COC(=O)/C=C/c1cccs1)Nc1nc(-c2cccc(Br)c2)cs1	12
CN(C)/C=C(\C#N)C(N)=C(C#N)C#N	-10
CCc1ccccc1NC(=O)C(C#N)Cc1cccnc1 (stereo unspecified)	17
CNCC(=O)Nc1ccc(OC(F)(F)F)cc1	-2
Cc1nn(Cc2ccccc2)c(C)c1NC(=O)CCCn1nc([N+](=O)[O-])cc1C	9

Entries shown so far that have an aryl thioether with sulfur outside any ring:
SMILES	Biofilm kill mix
COC(=O)c1c(NC(=O)CSc2nnc(C)c(=O)[nH]2)sc(C)c1C	19
O=C1c2cccc3cccc(c23)C(=O)N1CCCSc1ncn[nH]1	10
COC(=O)c1ccc(CSc2nnc(N)s2)o1	3
Cc1ccc(NC(=O)CSc2ccccc2NC(=O)c2ccccc2Cl)cc1Cl	19
Cc1cc(CSc2ccccc2)ccc1NC(=O)c1ccc(Br)cc1	10
Cc1ccc(-c2nnc3ccc(SCC(=O)N4CCCc5ccccc54)nn23)cc1	7
CSc1nc(C)cc(Oc2ccccc2)n1	2
CCN(CC)C(=O)CSc1ncnc2sc(C)c(C)c12	12
Brc1ccc2[nH]c3nc(SCCN4CCOCC4)nnc3c2c1	15
Cc1cccc(OCCNC(=O)CSc2ccc(C(F)(F)F)cc2[N+](=O)[O-])c1	19
CC(=O)Nc1cccc(NC(=O)CSc2ccc(-c3cccnc3)nn2)c1	14
CN1/C(=C\C(=O)CSc2nncn2C)C(C)(C)c2ccccc21	2
CSc1ccc(/C=C/C(=O)Nc2ccccc2)cc1	14
Cc1cccc(OCc2nnc(SCC(=O)Nc3cccc(C(=O)N4CCOCC4)c3)n2C)c1C	6
C=CCn1c(SC(C)C(N)=O)nc2sc(CC)cc2c1=O (stereo unspecified)	8
